Compound activity as filed in PubChem BioAssay.
Rango-impB inh: Rango-importin beta binding inhibition; Q14974; 340,000 compounds, 0.031% hits; Rango CFP/YFP FRET sensor + importin beta, 45 min; Potency, µM (titrated, usually from 92.2 µM), for inactives: at the highest dose inhibition of complex formation; active = rising FRET ratio curve, often small or poorly fitted; inconclusive = mostly compound fluorescence or quenching in the first reads; inactive = flat curves in all reads;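 also: potency is read from the fitted curve at half-maximal effect; 0% = DMSO wells and 100% = buffer wells lacking importin beta; nearly all actives have a fitted effect of over 15% in size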
Target sequence (Q14974 whole entry, looked up): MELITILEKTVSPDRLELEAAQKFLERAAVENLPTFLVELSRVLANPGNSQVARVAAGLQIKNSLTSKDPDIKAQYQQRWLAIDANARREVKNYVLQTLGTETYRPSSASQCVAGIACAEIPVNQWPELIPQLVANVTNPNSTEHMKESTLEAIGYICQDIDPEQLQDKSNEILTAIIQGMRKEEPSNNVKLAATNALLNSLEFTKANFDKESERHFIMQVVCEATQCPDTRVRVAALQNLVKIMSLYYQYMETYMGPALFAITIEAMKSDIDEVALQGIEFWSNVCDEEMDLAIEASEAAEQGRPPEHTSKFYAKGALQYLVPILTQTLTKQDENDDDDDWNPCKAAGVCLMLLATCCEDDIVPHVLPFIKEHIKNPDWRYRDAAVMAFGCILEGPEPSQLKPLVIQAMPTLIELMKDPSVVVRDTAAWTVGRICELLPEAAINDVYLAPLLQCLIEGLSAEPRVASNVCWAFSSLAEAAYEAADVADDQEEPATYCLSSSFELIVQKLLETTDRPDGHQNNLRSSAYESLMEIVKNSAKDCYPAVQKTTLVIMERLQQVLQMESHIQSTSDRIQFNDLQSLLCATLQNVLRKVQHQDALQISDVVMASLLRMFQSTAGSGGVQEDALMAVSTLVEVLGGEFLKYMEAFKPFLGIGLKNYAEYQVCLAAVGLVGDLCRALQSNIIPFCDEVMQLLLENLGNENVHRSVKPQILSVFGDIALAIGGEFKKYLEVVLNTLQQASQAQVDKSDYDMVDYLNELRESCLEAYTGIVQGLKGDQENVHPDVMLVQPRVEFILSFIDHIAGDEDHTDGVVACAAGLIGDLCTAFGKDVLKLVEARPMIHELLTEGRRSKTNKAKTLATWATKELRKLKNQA
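FRET biosensor (snurportin 1 IBB flanked by EYFP and cerulean), 50 nM, with compound 5 min, then 0.125 microM importin beta in PBS, 1 mM DTT, 0.02% Tween-20, 0.1% BSA. CFP/YFP ratio read after 45 min at room temperature; pre-read flags interference.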
miR-21 FLuc: raises the signal of a miR-21 reporter | Potency, µM (top dose mostly 38.3 µM), for inactives: at the highest dose reporter change, positive = more light | HeLa miR-21 FLuc reporter, luciferase, 48 h | 340,000 tested, under 10 active; active = well fitted rising curve with a large enough effect; inconclusive = small, poorly fitted or top-dose-only effect; inactive = no such curve, though single readings can be large or run the other way;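 also: % of control where 0% means no effect; miR-21 action dims this reporter so a rising signal means less miR-21 action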
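Luminescence from a firefly luciferase reporter carrying a miR-21 binding site downstream, stably expressed under a CMV promoter in HeLa cells that make miR-21 endogenously, reports miRNA modulation after 48 h compound exposure up to approximately 40uM final.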
GLA inh pH 4.5: alpha-galactosidase A (human) inhibition, pH 4.5; P06280; purified enzyme, 4-MU-alpha-Gal fluorescence, pH 4.5; activity change, negative = inhibition, % at 105 µM; 230,000 tested, under 10 active; AID 1467; inconclusive = small, poorly fitted or top-dose-only inhibition, or a rising curve; inactive = flat fitted curve, though single readings scatter; no compound was filed as active;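 also: 0% = full activity with enzyme and -100% = basal without enzyme; dose as in the result columns while the protocol names 77 µM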
Rango dissoc inh: inhibition of RanGTP-driven Rango-importin beta dissociation; O95149+P62826; Biochemical FRET Rango-importin beta, RanGTP-induced dissociation; Potency, µM (series often up to 46.1 µM), without a hit: at the top dose activity change, negative = inhibition; 340,000 compounds, 0.071% hits; AID 540253; active means falling FRET ratio curve, often poorly fitted, with flat reads before Ran was added; inconclusive means other falling curves, or compound fluorescence or quenching; inactive means flat or rising ratio curve;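 also: potency is read from the fitted curve at half-maximal effect; % of control where 0% means no effect; nearly all actives have a fitted effect of over 45% in size; -100% = wells without RanGTP and RCC1; the record marks most hits as doubtful in a second field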
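Quantitative HTS using a FRET biosensor: 0.1 uM Rango, 0.25 uM importin beta, 0.6 uM Ran, 2 mM GTP, 0.2 uM RCC1 final, PBS with DTT, Tween-20 and BSA. Post-read taken 45 min after Ran addition.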
* = called active by the depositor; . = no result given. Only part of the results is shown; the hit share may differ from the screen's.

SMILES	Rango-impB inh	miR-21 FLuc	GLA inh pH 4.5	Rango dissoc inh
Cc1ccc(C)c(C(=O)n2cnnc2N)c1	0.9%	-3.9%	0.6	-10.3%
CCOC(=O)Cc1csc(NS(=O)(=O)c2ccc(OC)cc2)n1	-1.3%	-1.1%	7.5	0.9%
CS(=O)(=O)N(CCc1ccccc1)CC(=O)NCc1ccncc1	0.0%	7.0%	1.9	0.9%
COc1ccc(OC)c(NC(=O)Nc2cccc(Cn3cccn3)c2)c1	5.8%	-9.3%	-1.1	27.3%
C/C(Cl)=C\Cn1c(=O)c2c(nc3n2CCS3)n(C)c1=O	2.9%	4.1%	1.8	-3.6%
CCc1ccccc1NC(=O)c1ccccc1Sc1ccc([N+](=O)[O-])cc1Cl	0.0%	-5.3%	-7.0	9.1%
CCOc1ccc(C(=O)NC(=S)N(Cc2ccccc2)Cc2ccccc2)cc1	4.9%	4.6%	1.3	-2.7%
CC1Cc2cc(/C(O)=C3\C(=O)C(=O)N(Cc4ccncc4)C3c3ccccc3F)ccc2O1 (stereo unspecified)	-0.2%	-7.0%	.	-13.9%
Cc1ccc(N(Cc2cc3ccccc3[nH]c2=O)C(=O)c2ccco2)c(C)c1	0.1%	1.2%	-0.6	19.1%
COc1ccc(C(=O)N/C(=C\c2cn(C)c3ccccc23)C(=O)NCCCN2CCOCC2)cc1OC	-0.9%	-3.5%	.	-6.2%
COc1ccc(CCNC(=O)CN2C(=O)NC3(CCc4ccccc43)C2=O)cc1 (stereo unspecified)	0.5%	.	.	-22.2%
COc1cccc(CC(=O)N2CCC(n3nccc3NC(=O)C3CCOC3)CC2)c1 (stereo unspecified)	3.3%	-3.7%	.	-10.2%
COc1cc(C(=O)NC(C(=O)Nc2cccc(C(C)=O)c2)C(C)C)cc(OC)c1OC (stereo unspecified)	0.3%	-5.7%	-3.9	14.3%
Cc1ccc(N(CC(=O)Nc2cc(C)ccc2C)S(C)(=O)=O)cc1	14.2%	-2.8%	.	8.4%
CC(=O)c1ccc(NC(=O)CC23CC4CC(C2)CC(n2nnc(C)n2)(C4)C3)cc1	3.9%	-3.0%	-6.4	-18.2%
N#Cc1ccccc1S(=O)(=O)N1CCN(C(=O)c2ccc(-n3cncn3)c([N+](=O)[O-])c2)CC1	-3.9%	.	.	8.8%
COc1ccccc1CNS(=O)(=O)c1ccc(-n2cnnn2)c(OC)c1	-2.0%	-2.4%	.	3.9%
CCn1c(SCC(=O)Nc2cc(C)on2)nc2c(c1=O)SCC2	2.5%	0.0%	.	1.0%
COC(=O)c1cc(NC(=O)CSc2nnc(N)s2)ccc1Cl	0.6%	2.8%	1.5	11.9%
C/C(=N\OC(=O)c1cccc(C(F)(F)F)c1)c1sc(-c2ccccc2)nc1C	-0.7%	-13.2%	5.1	8.4%
COCCn1c(SCC(=O)c2ccc3c(c2)OCCO3)nnc1-c1ccco1	0.5%	-3.9%	-18.2	-2.0%
Cc1ccc(S(=O)(=O)NCC(=O)OCC(=O)NC(=O)NC2CCCC2)cc1	-2.0%	0.9%	-1.0	-4.4%
CC(C)(C)c1n[nH]c(=S)n(/N=C/c2cccs2)c1=O	-2.8%	-23.4%	2.6	-2.4%
Cc1cccn2cc(-c3ccc(S(=O)(=O)N4CCCCC4)cc3)nc12	0.9%	-1.5%	-1.6	-12.8%
Cc1ccc(/C=C/S(=O)(=O)NCCC(=O)NCc2ccc(F)cc2)cc1	-0.3%	.	.	0.7%
COc1ccc(CC(=O)NCc2ccccc2)cc1	-2.6%	12.9%	.	-7.5%
CCN(CC)CC#CC(C)OCOCC#CCOC (stereo unspecified)	0.2%	-5.7%	-10.2	-13.3%
CCC(C)NC(=O)Cn1cnc2sc(C)c(S(=O)(=O)N3CCCCC3)c2c1=O (stereo unspecified)	-0.7%	3.4%	.	-4.5%
FC(F)Sc1ccc(NC(=S)NC2CCCC2)cc1	-0.7%	-4.1%	-1.5	-3.0%
Cc1cc(N2CCN(c3nc(-c4ccccc4)cs3)CC2)c2ccccc2n1	-5.1%	3.7%	-0.9	0.0%
CC(=O)NCc1nc2ccccc2n1C(C)C	-2.2%	0.9%	7.0	-9.9%
Cc1nc(N(C)C)ncc1C(=O)O	5.8%	-4.4%	-3.6	-1.5%
CN1CCN(S(=O)(=O)c2ccc(Sc3nnnn3-c3ccccc3)c([N+](=O)[O-])c2)CC1	2.4%	-1.7%	-7.3	7.7%
Cc1nc2scc(-c3ccc(C(C)(C)C)cc3)c2c(=O)n1N	-1.5%	18.4%	-13.1	-2.9%
O=c1[nH]c(-c2ccncc2)nc2ccccc12	-5.1%	-16.5%	6.0	4.3%
CNC(=O)N(O)C1N(NC(=O)Nc2cccc3ccccc23)C(=S)SC1(C)C (stereo unspecified)	-0.1%	0.4%	6.5	-3.9%
O=[N+]([O-])c1ccc(-c2cnc3ccccc3n2)cc1	-0.6%	-38.1%	.	4.0%
C/C(CC(=O)Nc1ccccc1)=N\NC(=O)COc1ccc(C)cc1Br	-0.4%	-2.1%	3.4	3.5%
CCOc1ccc(C2C(C#N)=C(N)Oc3cc(C)oc(=O)c32)cc1 (stereo unspecified)	0.6%	0.5%	3.2	0.6%
N#Cc1ccc(Oc2ccc(S(=O)(=O)N3CCOCC3)cn2)cc1	-1.3%	.	.	-15.3%

Compound profiles (already shown). Order of values: Rango-impB inh | miR-21 FLuc | GLA inh pH 4.5 | Rango dissoc inh
`Cc1nc2scc(-c3ccc(C(C)(C)C)cc3)c2c(=O)n1N` is listed with -1.5% | 18.4% | -13.1 | -2.9%
`C/C(CC(=O)Nc1ccccc1)=N\NC(=O)COc1ccc(C)cc1Br` is listed with -0.4% | -2.1% | 3.4 | 3.5%
`CC(C)(C)c1n[nH]c(=S)n(/N=C/c2cccs2)c1=O` is listed with -2.8% | -23.4% | 2.6 | -2.4%
`CCC(C)NC(=O)Cn1cnc2sc(C)c(S(=O)(=O)N3CCCCC3)c2c1=O` (stereo unspecified) is listed with -0.7% | 3.4% | . | -4.5%
`FC(F)Sc1ccc(NC(=S)NC2CCCC2)cc1` is listed with -0.7% | -4.1% | -1.5 | -3.0%

Other records.
SMILES	Rango-impB inh	miR-21 FLuc	GLA inh pH 4.5	Rango dissoc inh
CCc1ccc(NC(=O)Nc2cc(C(=O)O)ccc2N2CC3CC(C2)c2cccc(=O)n2C3)cc1 (stereo unspecified)	-2.4%	-10.2%	.	28.3%
Cn1cnc(S(=O)(=O)Nc2cc(C(F)(F)F)ccc2N2CCOCC2)c1	2.4%	-11.7%	1.7	-12.6%
CCn1cc([N+](=O)[O-])c(C(=O)N2CCCC2)n1	1.0%	-0.6%	3.4	-7.4%
CCn1nc(C)c(CNC(=O)c2cc(COc3ccc(F)cc3Cl)on2)c1C	-1.6%	19.3%	-6.3	-4.5%
CCCC(C(=O)OCC)P(=O)(c1ccccc1)c1ccccc1 (stereo unspecified)	-3.6%	1.9%	-13.9	10.1%
COc1ccc(Nc2nc(N)nc(CN(C)C3CCCCC3)n2)cc1	-0.6%	-13.0%	4.5	10.5%
COC(=O)c1c(C)[nH]c(C(=O)/C=C/c2ccccc2F)c1C	-4.4%	-59.2%	1.6	9.7%
CN1CCN(NS(=O)(=O)c2cccs2)CC1	-0.1%	-5.7%	5.6	-2.5%
COc1ccccc1NCCC(=O)OCC(=O)Nc1ccc(Cl)cn1	-1.8%	-4.1%	10.3	-10.0%

Entries above with a tert-butyl group, in the order listed:
SMILES	Rango-impB inh	miR-21 FLuc	GLA inh pH 4.5	Rango dissoc inh
CC(C)(C)c1n[nH]c(=S)n(/N=C/c2cccs2)c1=O	-2.8%	-23.4%	2.6	-2.4%
Cc1nc2scc(-c3ccc(C(C)(C)C)cc3)c2c(=O)n1N	-1.5%	18.4%	-13.1	-2.9%
